# 2A Renilla = FMDV 2A StopGo reporter, Renilla signal. AID 1745857. Potency, µM (titrated, usually from 57.5 µM), without a hit: at the top dose signal change, negative = less light. HEK cells with a luciferase reporter of 2A StopGo recoding. actives 0.32% (n = 120,000); active means well fitted falling curve with a large enough effect; inconclusive means small, poorly fitted or top-dose-only effect; inactive means no such curve, though single readings can be large or run the other way; also: nearly all actives have a fitted effect of over 55% in size; overnight with compound
# StopGo FLuc = lowers the firefly signal of an FMDV 2A StopGo reporter; HEK cells with a luciferase reporter of 2A StopGo recoding; Potency, µM (titrated, usually from 57.5 µM), for inactives: at the top dose signal change, negative = less light; actives 0.23% (n = 120,000); AID 1745856; active = well fitted falling curve with a large enough effect; inconclusive = small, poorly fitted or top-dose-only effect; inactive = no such curve, though single readings can be large or run the other way; also: nearly all actives have a fitted effect of over 60% in size; overnight with compound
# Starred values were filed as active, the others as inactive; ? = inconclusive; [ ] = remark or other dose. % is scaled to controls: 0 for no effect and ±100 for the full control effect; potency is read from the fitted curve at half-maximal effect.
# A first look (5 entries):
canonical_smiles	2A Renilla	StopGo FLuc
Brc1ccc(Oc2ncnc3c2oc2ccccc23)cc1	1.8%	45.5%[activator]
O=C(NCc1ccc(F)cc1)N1CCN(Cc2ccc(C(F)(F)F)cc2)CC1	?	?
C(=C\c1nc2ccccc2s1)/c1csc(-c2ccccc2)n1	18.6%	232.8%[activator]
CC(C)c1nn2c(=O)cc(COC(=O)c3ccc(NC(=O)C4CCCCC4)cc3)nc2s1	-9.1%	-0.7%
COC(=O)C1CCNC1 (stereo not drawn)	2.8%	-5.8%

# The whole of this part, from the first entry:
canonical_smiles	2A Renilla	StopGo FLuc
Brc1ccc(Oc2ncnc3c2oc2ccccc23)cc1	1.8%	45.5%[activator]
O=C(NCc1ccc(F)cc1)N1CCN(Cc2ccc(C(F)(F)F)cc2)CC1	?	?
C(=C\c1nc2ccccc2s1)/c1csc(-c2ccccc2)n1	18.6%	232.8%[activator]
CC(C)c1nn2c(=O)cc(COC(=O)c3ccc(NC(=O)C4CCCCC4)cc3)nc2s1	-9.1%	-0.7%
COC(=O)C1CCNC1 (stereo not drawn)	2.8%	-5.8%
CNC(=O)NC(=O)C(C)Sc1cccc2cccnc12 (stereo not drawn)	-12.3%	-2.2%
Cc1ccc(Cl)cc1NC(=O)COC(=O)c1nn(C)c(=O)c2ccccc12	-16.7%	-9.5%
CS(=O)(=O)c1ncc(N(Cc2ccco2)Cc2ccco2)c(C(=O)Nc2ccccc2Br)n1	14.2%	30.2%[activator]
CCc1cc2c(s1)-n1c(C)nnc1CN=C2c1ccccc1Cl	32.9%[activator]	1.9%[11.5 µM]
Cc1ccc(-n2c(=O)[nH]c3ccc(Br)cc3c2=O)cc1	-8.3%	5.2%
Cc1ccc(NC(=O)CN2C(=O)CSc3ccc(S(=O)(=O)N(C)C)cc32)cc1C	-0.9%	-10.2%
COC(=O)c1c(C)[nH]c(C(=O)NCCc2ccc(Cl)cc2)c1C	35.5%[activator]	169.5%[activator]
COc1ccc(NC(=O)Cn2c(=O)c3cc(Cl)ccc3n3nncc23)cc1	3.9%	7.4%
O=C(O)CNS(=O)(=O)c1cc(C(=O)O)ccc1C(=O)O	-13.7%[1.06 µM]	-0.2%
CC(C)CCNC(=O)CN1C(=O)CSc2ccc(S(=O)(=O)N3CCC(C)CC3)cc21	16.6%	-17.5%
CC1=C(c2ccc(C)c(C)c2)S(=O)(=O)N=C1N1CCC(C(=O)N2CCC(C(N)=O)CC2)CC1	-9.7%	-4.7%
Cc1ccc(S(=O)(=O)NCCc2nnc3ccc(SCc4cc(C)ccc4C)nn23)cc1	-33.8%	?
COc1cccc(/C=C/c2nc(C#N)c(N3CCN(C(=O)c4ccco4)CC3)o2)c1	24.7%	-5.1%
CCc1ccc(NC(=O)c2sc3ncnc(N(C)C4CCCCC4)c3c2C)cc1	-8.6%	10.1%
COCCOC(=O)c1c(-c2ccccc2)c(-c2ccccc2)nn(C)c1=O	-3.4%	-17.0%
CCn1cc(C(=O)NCc2ccccc2OC)c(=O)c2cc(S(=O)(=O)N3CCCCC3)ccc21	0.8%	0.7%
CCn1nc(-c2ccc(C)c(S(=O)(=O)NCc3ccccc3C)c2)c2c(c1=O)CCCC2	149.5%[activator]	-26.9%
Cc1nc(-c2ccncc2)[nH]c(=O)c1CC(=O)N(C)C(C)C(C)(C)C (stereo not drawn)	-8.9%	-7.4%
COc1ccc(CC(NC(=O)c2ccc3c(c2)NC(=O)CCS3)c2ccc(OC)cc2)cc1 (stereo not drawn)	66.2%[activator]	87.3%[activator]
CCOc1cc(C2C(C(=O)OC)=C(C)NC3=C2C(=O)c2ccccc23)cc(Br)c1OCC (stereo not drawn)	-8.2%	-15.3%
O=C(c1ccccc1)c1ccc(C2CC2)cc1	5.6%	137.9%[activator]
c1ccc(-c2nnn(Cc3ncc(-c4ccccc4)o3)n2)cc1	3.9%	13.1%
COc1ccc(-c2nc3sc(CCNC(=O)C(=O)Nc4ccc(C)cc4C)c(C)n3n2)cc1	-9.8%	17.8%
CC(CCc1ccco1)NC(=O)C1CCN(c2ccc(C(F)(F)F)cn2)CC1 (stereo not drawn)	2.4%	-2.3%
O=C(NCc1ccncc1)c1ccccc1Nc1ccccc1	45.5%[activator][1.06 µM]	-0.8%
O=C(O)c1c(F)c(F)c(F)c(F)c1-c1ccccc1	2.5%[1.06 µM]	-7.1%
Cc1cccc(-c2nc(C#N)c(NCc3ccco3)o2)c1	67.8%[activator]	219.1%[activator]
COc1ccc(C=O)cc1COc1ccccc1C=O	13.0%	0.0%
Cc1ccccc1-n1cnnc1SCCC(=O)Nc1cccc(S(=O)(=O)N2CCCC2)c1	26.0%	-0.1%
Cc1ccc(CSc2nnc(-n3c(=O)c(C#N)cc4c(=O)n5cc(C)ccc5nc43)s2)cc1	-9.1%	-10.6%
O=c1oc2ccc3ccccc3c2cc1-c1nnc(Nc2cccc(F)c2)s1	-10.4%	-10.4%
CC(=O)Nc1ccc(C)cc1-c1nnc(SCC(=O)Nc2cc(Cl)ccc2Cl)[nH]c1=O	-0.5%	-6.9%
O=C(NCc1ccc(OC(F)(F)F)cc1)C1CCN(S(=O)(=O)/C=C/c2ccccc2)CC1	-0.5%	-19.0%
COc1ccc(Cl)cc1NC(=O)CN(C)C(=O)Cn1[nH]c(=O)c2ccccc2c1=O	12.9%	16.6%
Cc1cc(C)c(NC(=O)c2ccc3c(c2)CCC3)c(C)c1	15.0%	89.6%[activator]
O=C(c1ccc(Cl)cc1)N1CCN(c2nc3ccccc3s2)CC1	0.5%	13.4%
CCOC(=O)N1CCN(Cc2nc3cc([N+](=O)[O-])ccc3n2C(C)C)CC1	-9.4%	-0.2%
CCN(CC)S(=O)(=O)c1ccc(-c2nc(C#N)c(N3CCN(c4ccccc4)CC3)o2)cc1	-8.0%	-9.5%
CN(C(=O)/C(C#N)=C\c1ccc(OC(F)F)cc1)C1CCCCC1	-25.1%	-26.0%
Cc1ccc(OCC(=O)Nc2ccc3nc(SCC(N)=O)sc3c2)cc1	-6.9%	27.2%
O=C(CNc1ccccc1)NNC(=O)c1cc(-c2ccccc2)nn1-c1ccccc1	10.9%	4.7%
O=C(Nn1cnnc1)c1ccc(Cl)cc1Cl	-0.2%	4.0%
CC1CCCCN1c1c(S(=O)(=O)c2ccc(Cl)cc2)cnc2ccccc12 (stereo not drawn)	14.7%	-2.6%
COc1ccc2cc(S(=O)(=O)c3cc(C)cc(C)c3)c(=O)oc2c1	20.6%	21.5%
Cc1ccccc1SCC(=O)N1CCc2sccc2C1c1cccs1 (stereo not drawn)	74.0%[activator]	11.0%

# Next entries.
canonical_smiles	2A Renilla	StopGo FLuc
CCCNC(=O)c1cc(-c2ccccc2OC(C)C)nc2ccccc12	36.8%[activator]	0.0%
CCN(C)C(=O)Oc1cccc([C@H](C)N(C)C)c1	-5.9%	-12.6%[11.5 µM]
CCCCn1nnnc1CSc1nnc(-c2ccc(OC)cc2)n1-c1ccc(C)cc1	7.6%	2.2%
O=C1COc2ccc(-c3cc(-c4ccc(F)cc4)c4c(n3)-c3cc(Cl)ccc3OC4)cc2N1	-10.0%	-15.1%
Cc1oc(-c2ccccc2)nc1CC(=O)NC12CC3CC(CC(C3)C1)C2	32.3%[activator]	10.9%
FC(F)(F)c1ccc(/C=N/Nc2c(Cl)cc(Cl)cc2Cl)cc1	3.1%	6.9%
CCCCCOc1ccc(C(=O)O)cc1	12.2%	0.0%
CN(C)c1cc2c(cc1NC(=O)c1ccc(F)cc1)n(C)c(=O)n2C	-9.1%	5.9%
CCOC(=O)c1sc2nc(CN3CCC(C)CC3)[nH]c(=O)c2c1C	-9.7%	-5.8%
O=C(NC1CC1)C1CCN(Cc2ccc(Cl)cc2)CC1	-15.7%	-10.7%
Cc1cccc(-c2nnc(C(C)Sc3n[nH]c(N)n3)o2)c1 (stereo not drawn)	20.0%	166.9%[activator]
O=CNNC(=S)Nc1ccccc1C(F)(F)F	10.0%	9.0%
Cc1ccc(CSc2nc3c(c(=O)[nH]c(=O)n3C)n2C(C)C)cc1	5.7%	7.0%
COc1ccc(C(=O)COC(=O)c2ccc3c(c2)OCCO3)cc1	-5.8%	5.4%
COc1ccccc1C(=O)N/C(=C\c1ccccc1)C(=O)O	18.6%	16.7%
CC(=O)c1c(C)oc2c1cc(NS(=O)(=O)c1ccc(Br)cc1)c1ccccc12	74.4%[activator]	9.4%
CCc1cccc(NC(=O)Cn2c(=O)n(CCCCCC(=O)NCc3ccc(F)cc3)c(=O)c3sccc32)c1	-10.6%	19.9%
CCc1ccc(NC(=O)CSC2=NS(=O)(=O)c3ccccc3N2Cc2ccccc2)cc1	-16.4%	-13.3%
CCOC(=O)c1ccc(Nc2nc3ccccc3nc2NS(=O)(=O)c2ccc(C)cc2C)cc1	7.9%	30.0%
Cc1[nH]ncc1Cl	-10.2%	9.1%
COc1ccccc1CNC(=O)C1CCCN(c2nc3ccccc3n3cccc23)C1 (stereo not drawn)	13.6%	-9.8%
CCOC(=O)C1CCN(CCC(=O)Nc2cc(C)ccc2OC)CC1	-9.8%	-2.9%
COc1ccc(OC)c(CN(Cc2ccc(C#N)cc2)C2CC2)c1	-6.3%	2.6%
COc1cccc(-c2ccc(=O)n(CC(=O)N3CCC(Cc4ccccc4)CC3)n2)c1	-30.6%	-29.9%
Cc1cnc(C(=O)OCc2cc(=O)oc3cc(C)c(C(C)C)cc23)cn1	-9.1%	-3.1%
CCc1cccc2c(C(=O)COC(=O)c3c(C)noc3C)c[nH]c12	-1.7%	0.0%
CCOC(=O)CSc1nc2ccccc2n2c(C)nnc12	-2.4%	-15.0%
Cc1cccc(OCC(=O)Nc2cc(-c3ccccc3F)nn2-c2ccccc2)c1	-7.0%	-10.9%
CCOc1ccc(-n2c(=O)c3c(C)c(C(=O)N(C)C)sc3n(CC(=O)Nc3c(C)cc(C)cc3C)c2=O)cc1	-18.5%	-7.3%
O=C(O)CNS(=O)(=O)c1cccs1	0.0%	38.5%

# Additional compounds
Molecule,2A Renilla,StopGo FLuc
C[N+](C)(C)Cc1cccs1,0.7%,-10.6%
CN(CC(=O)Nc1ccccc1C(F)(F)F)Cc1nc2ccccc2o1,11.9%,8.2%
CC(C)(C)CC(=O)NCCc1cccs1,-10.7%,33.8%[activator]
Cc1cc2c(cc1S(=O)(=O)Nc1cccc(C#N)c1)OCC(=O)N2,128.1%[activator],-22.8%
COc1cc(C(=O)OC2/C=C(\C)CCC3OC3(C)CC(O)[C@@H]2C(C)C)cc(OC)c1OC (stereo partly drawn),2.6%,9.9%
Cc1ccc(C2c3[nH]c4ccccc4c3CCN2C(=O)CCC2CCCC2)cc1 (stereo not drawn),?,?
O=C(Nc1cccc(C(F)(F)F)c1)c1c(-c2ccccc2)nc2n1CCS2(=O)=O,?,?
CC(Sc1nc(-c2ccccc2)cs1)C(=O)NC1(C#N)CCCCC1 (stereo not drawn),152.9%[activator],9.6%
CCN(CC)S(=O)(=O)c1cccc(NC(=O)c2nn(Cc3ccccc3)c(=O)c3ccccc23)c1,1.9%,-0.2%
CCc1cccc2c(C(=O)COC(=O)c3nn(C)c(=O)c4ccccc34)c[nH]c12,9.7%,1.6%
Cc1cc(C(=O)NCCc2ccccn2)c(C)s1,8.7%,0.0%
COc1ccc(CCNc2nc(-c3cc(OC)c(OC)c(OC)c3)cs2)cc1OC,1.0%,8.7%
Cc1c(C)n(Cc2ccccc2)c2ccc(C(=O)NCc3ccco3)cc12,63.1%[activator],69.6%[activator]
Cc1ccc2c(=O)cc(C(=O)Nc3cccc(Cl)c3)oc2c1,-8.2%,-7.2%
NS(=O)(=O)c1ccc(N/N=C/c2cccs2)c([N+](=O)[O-])c1,-17.5%,0.0%
Cc1ccc(CNc2oc(CC(C)C)nc2C#N)cc1,13.9%,72.4%[activator]
COc1ccc(NC(=O)CSc2nc3c(oc4ccccc43)c(=O)n2Cc2ccco2)cc1Cl,-2.1%,-18.8%
CC(C)Cc1nc(OCC(=O)N2CCCCC2)c(C#N)c2c1CCCC2,11.6%,15.5%
CC(NC(=O)NC(C(N)=O)C(N)=O)c1ccccc1C(F)(F)F (stereo not drawn),2.8%,-14.2%
COc1ccc(-c2nc(C#N)c(N3CCN(C(=O)c4ccccc4OC)CC3)o2)cc1,-3.1%,1.5%
O=C1CCN(C(=O)COc2ccc(Cl)cc2Cl)c2ccccc2N1,-2.0%,35.5%[activator]
COc1ccc(NC(=O)N2c3ccc(OC)cc3C(C)=CC2(C)C)cc1,5.7%,114.4%[activator]
O=C(/C=C/c1ccc(-c2cc(Cl)ccc2Cl)o1)c1ccc(F)cc1,-2.6%,6.1%
COCCNC(=O)c1ccc(-c2nc(CS(=O)c3ccc(C)cc3)c(C)o2)cc1 (stereo not drawn),6.4%,14.4%
NC(=S)N/N=C/c1ccc([N+](=O)[O-])s1,?,-3.5%
Cc1ccc(N2C(=O)CC(c3cccs3)C3=C2CCCC3=O)cc1 (stereo not drawn),13.5%,-1.8%
CCONC(=O)CNC(=O)c1ccccc1,10.6%,17.4%
CC(O)CNC(=O)C(=O)Nc1sc2c(c1C#N)CC(C)(C)OC2 (stereo not drawn),3.8%,52.3%[activator]
O=C(O)C(Cc1cccs1)c1ccccc1 (stereo not drawn),5.7%,-1.5%

# A few values from above.
# Value of Cc1ccc2c(=O)cc(C(=O)Nc3cccc(Cl)c3)oc2c1 under StopGo FLuc: -7.2%
# Value of C[N+](C)(C)Cc1cccs1 under StopGo FLuc: -10.6%

# Compound activity deposited in PubChem BioAssay by National Center for Advancing Translational Sciences (NCATS).
